# Screens deposited in PubChem by National Center for Advancing Translational Sciences (NCATS).
# HPGD inh: blocks human HPGD enzyme activity; purified HPGD, NADH fluorescence kinetic, PGE2 substrate; Potency, µM, without a hit: at the top dose activity change, negative = inhibition, usual class: inhibitors; P15428; 4.3% of 150,000 active; AID 894; active = well fitted inhibition curve with a large enough effect (not every such curve was filed as active); inconclusive = small, poorly fitted or top-dose-only effect, or another doubt; inactive = no such curve, though single readings can be large or run the other way;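 also: top concentration of the series not given in the record; plate controls included wells without enzyme; inactives centre near -10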
# Target sequence (P15428 whole entry, looked up): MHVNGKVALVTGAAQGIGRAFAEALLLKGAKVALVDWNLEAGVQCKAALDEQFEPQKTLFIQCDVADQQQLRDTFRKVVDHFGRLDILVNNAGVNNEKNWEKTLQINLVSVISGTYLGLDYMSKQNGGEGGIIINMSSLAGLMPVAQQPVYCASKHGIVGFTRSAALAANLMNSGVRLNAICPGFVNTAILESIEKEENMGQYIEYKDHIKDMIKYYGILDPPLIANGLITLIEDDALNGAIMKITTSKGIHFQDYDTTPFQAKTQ
#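 NADH formation kinetics: reaction with 30 uM PGE2 and 1 mM NAD+ (final), 20 nM enzyme, Tris-HCl pH 8 with Tween 20, after 15 min compound preincubation at room temperature. Fluorescence change, last versus first of five reads.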
# * marks the source's active call; other numbers are inactive results; u = inconclusive; & = joins results of further samples. % is scaled to controls: 0 for no effect and ±100 for the full control effect; potency is read from the fitted curve at half-maximal effect. Some of the compounds tested, so the mix of outcomes need not match the whole.
HPGD inh	molecule
-12.4%	CCCCCC/C=C1\CC(C(=O)OCC)Oc2ccccc21 (stereo unspecified) (tested in a mixture with another compound)
-9.5%	Fc1ccc(CSc2ccc(-c3ccc4c(c3)OCO4)nn2)cc1
-17.4%	CC(C)CC(=O)n1sc(NC(=O)c2ccccc2)nc1=O
-6.0%	FC(F)Sc1ccc(-n2cc(-c3ccc(Cl)cc3)[n+]3c2CCC3)cc1
-7.1%	N#CCCn1ncc2ccccc21
-16.0%	CC(C)(C)C(=O)Nc1sc2c(c1C#N)CCCCC2
-3.6%	Cc1c(C(=O)NC2CC2)oc2ccc(S(=O)(=O)N3CCCCCC3)cc12
-5.4%	Cc1ccc(C)c(N2CCN(C(=O)CN(C)S(=O)(=O)c3ccc4c(c3)CCC(=O)N4)CC2)c1
-12.8%	C/C(NCCN1CCOCC1)=C(\C#N)C(N)=O
-17.1%	CC(C)CC(=O)NC(=S)Nc1ccc(N2CCOCC2)cc1
-10.8%	CSc1ccccc1NC(=O)CN(C1CCCCC1)S(C)(=O)=O
-6.7%	COC(=O)[C@@]1(Cc2ccc(OC)cc2)[C@H]2c3cc(C(=O)N(C)C)n(CCO)c3C[C@H]2CN1C(=O)c1ccccc1
-2.1%	COc1cc2nc(C3CC3)n(NC(=O)c3ccc(Cl)cc3)c(=O)c2cc1OC
-14.9%	O=C1c2cccnc2C(=O)N1Cc1ccccc1
-8.4%	O=C(Nc1ccc(-n2ccnc2P(=O)(O)c2ccccc2)cc1)c1ccccc1Cl
-3.3%	COC(=O)C(O)(CC(=O)Nc1ccc(Cl)cc1Cl)C(F)(F)F (stereo unspecified)
-4.9%	CN1CCN(C(=O)NC2CCCN2S(=O)(=O)c2ccc(Cl)cc2)CC1 (stereo unspecified)
u	CCCn1c(-c2ccc(F)cc2)nc2c(NC(C)CCCN(CC)CC)nc(C)nc21 (stereo unspecified)
u	O=c1c2ccccc2nc2sc3ccccc3n12
7.3%	O=C(Nc1c(F)cc(F)cc1Br)c1cccnc1

# A different layout for 2 compounds above.
Molecule	HPGD inh
CC(C)CC(=O)n1sc(NC(=O)c2ccccc2)nc1=O	-17.4%
FC(F)Sc1ccc(-n2cc(-c3ccc(Cl)cc3)[n+]3c2CCC3)cc1	-6.0%

# Remaining list, next part
HPGD inh	molecule
-14.4%	C=CCSc1nnc(-c2c[nH]c3ccccc23)n1CC
-8.0%	O=C1/C(=C/c2ccccc2)NC(=S)N1C(c1ccccc1)c1ccccc1
-11.4%	COc1ccc(O)c(-c2[nH]ncc2C(=O)c2ccccc2C)c1
-9.0%	COc1ccc(N2C(C(C)=O)=NN(c3ccccc3)C2c2cccs2)cc1 (stereo unspecified)
15.8µM*	Cc1ccccc1C(=O)/C=C1\NC(=O)CS1
-6.4%	CC(CN(C)Cc1ccccc1)OC(=O)c1cccs1 (stereo unspecified)
-0.4%	CC(Oc1ccccc1)C(=O)NNC(=O)c1ccccn1 (stereo unspecified)
-7.6%	O=C(CNC(=O)c1cccs1)NCC(=O)OCc1c(Cl)cccc1Cl
-28.6%	O=C(Cn1nnc(-c2ccccc2-n2cnnn2)n1)c1ccccc1
-24.0%	COc1ccc(-n2c(SC(C)C(=O)Nc3ncc(Cl)cc3Cl)nc3ccccc32)cc1 (stereo unspecified)
-3.4%	CCOC(=O)CN(C(=O)CNC(=O)c1cccs1)C(C(=O)NC1CCCCC1)c1cccs1 (stereo unspecified)
-9.7%	O=C(Nc1ccc(F)cc1)c1ccccc1CC[N+](=O)[O-]
6.1%	O=C(CSCc1cccc(F)c1)N1CCN(c2ccccc2)CC1
-27.1%	O=C(N/N=C/C(Br)=C\c1ccccc1)c1ccc2nc[nH]c2c1
10µM*	COC(=O)CNC(=O)[C@@]1(C)C=C[C@@H](Cc2ccccc2)N1C(C)=O
-14.6%	CCCCNC(=O)c1onc(CSc2ccc(Cl)cc2)c1C(=O)O
-5.3%	CCCCCC#CC[C@@H](O)/C=C/C=C/C=C\[C@@H](O)CCCC(=O)O
1.6%	O=C(Nc1ccc(F)cc1)NC1CCN(Cc2nnnn2Cc2ccco2)CC1
-5.2%	COc1ccccc1NS(=O)(=O)c1cccs1
-13.1%	CCC1OC(=O)C(C)[C@@H](O[C@H]2C[C@@](C)(OC)C(O)C(C)O2)C(C)[C@@H](O[C@@H]2OC(C)CC(N(C)C)C2O)[C@@](C)(O)CC(C)CN(C)C(C)C(O)[C@]1(C)O (stereo partly specified)
u	COC(=O)/C(C)=C/CC12OC(C)(C)C3CC(C=C4C(=O)c5cc6c(c(CCC(C)(C)Cl)c5OC431)OC1(C)CCC(=C(C)C)C6C1)C2=O (stereo unspecified)
11.2µM*	Cc1nn(C2CCCCC2)c(N)c1-c1ccccc1
-20.4%	CCOC(=O)C(=O)/C(C#N)=C/Nc1ccc(F)cc1
-1.5%	COc1ccc(-c2nc(-c3ccccc3)oc2Nc2ccc3ccccc3c2)cc1
-8.1%	COCCN1C(=O)N[C@@H](c2cccc(C(F)(F)F)c2)[C@@H](C(=O)OC)[C@H]1C
u	COc1cc2c(cc1NC(=O)COC(=O)[C@@H](NC(=O)c1ccccc1)C(C)C)oc1ccccc12
-14.7%	O=C1N/C(=C\c2ccc(O)cc2)C(O)=C1C=NCc1ccccc1
-6.7%	COC1C[C@@H](O[C@@H]2C(C)C(=O)OC(C)C(C)C(O)C(C)C(=O)[C@@]3(CO3)CC(C)C(OC3OC(C)CC(N(C)C)C3O)C2C)OC(C)[C@@H]1O (stereo partly specified)
-7.3%	O=C(NCc1ccccn1)c1cn(-c2ccccc2)nc1-c1ccc(Cl)cc1
-26.9%	CC(Cc1cccs1)NC(=S)Nc1ccc(Cl)c(Cl)c1 (stereo unspecified)
-12.9%	CCc1ccc(CN2CC(C(=O)O)CC2=O)cc1 (stereo unspecified)
-11.1%&-7.8%	N[C@H](CCCP(=O)(O)O)C(=O)O
-6.6%	Cc1ccccc1NC(=O)C(=O)NC(C)CCc1ccccc1 (stereo unspecified)
-1.9%	CCCCc1nc2n[nH]c(N)c2c2c1CCC2
-10.9%	Cc1ccc(C)c(Sc2ccc(NC(=O)CCl)cc2)c1
-3.3%	CC(C)(C)NC(=O)C(c1ccncc1)N(C(=O)Cn1nnc(-c2cccs2)n1)C1CCCCC1 (stereo unspecified)
-0.8%	CC(=O)C1C(c2ccc(OC(F)F)cc2)NC(=O)NC1(O)C(F)(F)F (stereo unspecified)
-4.3%	CC(C)c1nccn1S(=O)(=O)c1cc([N+](=O)[O-])ccc1Cl
-13.1%	COc1cc(OC)cc(C(=O)N2CCN(c3ncccn3)CC2)c1
-5.3%	CCCC(=O)NC(c1ccco1)c1cc(Cl)c2cccnc2c1O (stereo unspecified)
-8.4%	CCCCn1c(N)c(NCCC(C)C)c(=O)[nH]c1=O
-1.4%&-8.9%	CC(C)CC(=O)N[C@H](C(=O)N[C@H](C(=O)N[C@@H](CC(C)C)[C@@H](O)CC(=O)N[C@@H](C)C(=O)N[C@@H](CC(C)C)[C@@H](O)CC(=O)O)C(C)C)C(C)C
-9.7%	Cn1c(=O)c2cc(S(=O)(=O)NC(C(=O)NC3CCCCC3)c3ccccc3)ccc2n(C)c1=O (stereo unspecified)
-10.3%	Cc1ccc(C(=O)NNC(=O)c2cc(OCC(F)(F)F)ccc2OCC(F)(F)F)cc1
-10.3%	Cc1ccc(NS(=O)(=O)c2cc(C(=O)Nc3cccc([N+](=O)[O-])c3)ccc2C)cc1
-19.8%	CCN1C(=O)C2(C(C(=O)c3ccc(C)o3)=C(O)C(=O)N2CCCN2CCOCC2)c2ccccc21 (stereo unspecified)
-11.6%	CCOc1ccc(N2C(=O)CC(N(CCc3ccc(OC)cc3)C(=O)c3cccc(F)c3)C2=O)cc1 (stereo unspecified)
-9.6%	O=C(NC1CCCCC1)c1ccccc1NC(=S)NC(=O)C1CCC1
u	O=C1NCC(c2ccccc2)C1C(=O)N/N=C\c1ccc(-c2ccc(Cl)c(Cl)c2)o1 (stereo unspecified)
-2.8%	CC1(C)SC(=S)N(NC(=O)Nc2ccccc2)C1N(O)C(=O)Nc1ccccc1 (stereo unspecified)
-9.2%	CC(C)CNC(CC(=O)Nc1cccc([N+](=O)[O-])c1)C(=O)O (stereo unspecified)
-22.5%	COc1ccc(NC(=S)NC(NC(=O)c2cccc(C)c2)C(Cl)(Cl)Cl)c([N+](=O)[O-])c1 (stereo unspecified)
-26.8%	Cn1c(C(=O)NC2CCCCCC2)cc2c(=O)n(C)c3ccccc3c21
-5.3%	O=C(CCl)Nc1cccn2ncnc12
u	COc1cccc(-n2nc(-c3ccnn3-c3ccc(F)cc3)c(=O)n(C)c2=O)c1
-10.9%	CO/N=C(\c1nonc1N)N1CCN(c2ccc(Cl)cc2[N+](=O)[O-])CC1
1.9%	CC(=O)n1cc(C2C(=O)CCCC2=O)c2ccccc21
1.8%	COc1ccc(NC(=O)c2ccccc2NC(=O)NC2CCCCC2)cc1
-4.4%	Cc1ccc(CNC(=O)CN2CCN(Cc3ccc(Cl)cc3)C2=O)cc1
-25.2%	Cc1ccccc1Cn1nnc(-c2cccc(C(=O)O)c2)n1

# Among those listed so far, these have a nitro group on carbon.
HPGD inh	molecule
-9.7%	O=C(Nc1ccc(F)cc1)c1ccccc1CC[N+](=O)[O-]
-4.3%	CC(C)c1nccn1S(=O)(=O)c1cc([N+](=O)[O-])ccc1Cl
-10.3%	Cc1ccc(NS(=O)(=O)c2cc(C(=O)Nc3cccc([N+](=O)[O-])c3)ccc2C)cc1
-9.2%	CC(C)CNC(CC(=O)Nc1cccc([N+](=O)[O-])c1)C(=O)O (stereo unspecified)
-22.5%	COc1ccc(NC(=S)NC(NC(=O)c2cccc(C)c2)C(Cl)(Cl)Cl)c([N+](=O)[O-])c1 (stereo unspecified)
-10.9%	CO/N=C(\c1nonc1N)N1CCN(c2ccc(Cl)cc2[N+](=O)[O-])CC1

# The list goes on.
HPGD inh	molecule
14.1µM*	COC(=O)c1ccc(-c2ccc(/C=N/N3C(=O)C4C5C=CC(C6CC56)C4C3=O)o2)cc1 (stereo unspecified)
u	Cc1ccc(-c2nc3cccnc3o2)cc1NC(=O)COc1ccc(Cl)cc1C
-5.5%	COc1ccc(CCNC(=O)CN(C)S(=O)(=O)c2cccs2)cc1OC
0.9%	Cc1cnn(Cc2ccccc2)c1N
-6.4%	COc1ccc(C(=O)Nc2cccc3cccnc23)cc1OC
2.51µM*	CCCCc1n[nH]c2c1/C(=N/O)CC(c1ccccc1)C2 (stereo unspecified)
-9.3%	Oc1ccc(/C=N/Nc2cc(N3CCCC3)nc(N3CCCC3)n2)cc1O
-9.6%	CCCSCCCNC(=O)Cn1cc2c(n1)CCCCC2
-6.8%	COc1nc(NC(C)=O)nc(C)c1Br
u	Cc1ccc(-c2cc(=O)c3ccccc3[nH]2)cc1
u	Cc1nn(C)cc1CNC(=O)c1cnn2c(C(F)F)cc(C3CC3)nc12
-9.1%	O=C(NC(=S)NCC1CCCO1)c1ccc([N+](=O)[O-])cc1 (stereo unspecified)
-14.9%	O=C(NCCc1ccccc1)c1ccc(OCCOc2ccccc2)cc1
-4.2%	Cc1ccc2[nH]c(=O)c(C(c3nnnn3C3CCCC3)N(Cc3cccnc3)Cc3ccco3)cc2c1 (stereo unspecified)
-2.5%	Cc1occc1-c1nnc(SCC(=O)Nc2ccccc2)n1Cc1ccccc1
u	CN(C)CCNc1oc(-c2cccc(Cl)c2)nc1C#N
-4.0%	O=C(CNC(=O)/C(=C\c1ccccc1)NC(=O)c1ccc(Br)cc1)OCc1ccccc1
-2.5%	COc1cccc(CNC(=O)C2CCCN(S(=O)(=O)c3c(C)n[nH]c3C)C2)c1 (stereo unspecified)
-1.2%	CCOc1ccccc1-n1c(SCC(N)=O)nnc1-c1ccccc1
-14.2%	CCc1nnc(NC=C2C(=O)OC(C)(C)OC2=O)s1
-9.0%	CC(=O)/C(C(=N)N1CCN(c2cccc(Cl)c2)CC1)=C(\C)O
-13.9%	Clc1ccc(CSc2nnc(-c3cccnc3)o2)cc1
u	C/C(=N/NC(=O)c1cc(Cl)ccc1O)C12CC3CC(CC(C3)C1)C2
-10.9%	Cc1ccccc1N/C=C/C(=C(C#N)C#N)N(C)C
-17.7%	CCCCn1cnc2c1c(=O)[nH]c(=O)n2CCCC
-10.9%	CCOC(=O)N1CCC(NC(=O)CCC(=O)N2CCOc3ccccc32)CC1
-2.4%	Cc1ccc(C)c(N2CCN(C(=O)C3CCCN(S(=O)(=O)c4cnc[nH]4)C3)CC2)c1 (stereo unspecified)
-24.2%&-7.2%&-4.9%&4.1%	CC(=O)N1CCN(c2ccc(OC[C@H]3CO[C@](Cn4ccnc4)(c4ccc(Cl)cc4Cl)O3)cc2)CC1
-13.7%	CC1(C)CC(NC(=O)c2coc(=O)c(Br)c2)CC(C)(C)N1
-14.9%	Cn1cnc([N+](=O)[O-])c1Sc1nc(N)nc2c1ncn2Cc1ccccc1
-3.3%	Cc1ccc(-c2nc3n(n2)Cc2ccccc2-3)cc1
-6.8%	O=C(c1cc2ccccc2oc1=O)N1CCN(CCc2ccccc2)CC1
0.5%	CC(C)(C)NC(=O)CSc1nnc(-c2ccco2)n1Cc1ccco1
-8.5%	COc1ccc(S(=O)(=O)Cc2ccc(C(=O)N3CCN(c4ccccc4F)CC3)o2)cc1
-0.7%	Cc1c(Cl)cccc1NC(=O)C[C@H]1Sc2ccccc2NC1=O
-14.9%	O=S1(=O)NC(=NCc2ccco2)c2ccccc21
-10.8%	CCN(CC)C(=O)CSc1nnc(CNc2ccc(F)cc2)o1
-3.7%	COc1cc(/C=C(/C#N)c2ccc(C)cc2)ccc1Oc1ccc([N+](=O)[O-])cn1
u	COc1ccc(-c2nsc3c(N4CCN(C(=O)c5ccco5)CC4)ncnc23)cc1
-19.4%	O=C(Cn1nnc2ccccc21)N/N=C/c1ccco1
-10.3%	COc1cc(C2NC(=O)N(C)C3=C2C(=O)CCC3)cc(OC)c1OC (stereo unspecified)
-7.0%	CC1=NN(C(=O)c2ccncc2)C(=O)[C@@H]1N=Nc1ccc2ccccc2c1
